YjeE inh = qHTS Assay for Inhibitors of YjeE; tRNA threonylcarbamoyladenosine biosynthesis protein TsaE (Escherichia coli (strain …; purified YjeE, fluorescence polarisation of a bound ADP probe; Potency, µM; 71,000 tested, 0.05% active; active = well fitted falling curve; inconclusive = weaker or top-dose-only fall, or a rising curve; inactive = flat or poorly fitted curve;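 note: top concentration of the series not given in the record; excess ADP was the control for the full effect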
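Purified YjeE (10 uM) with BODIPY Texas Red-labeled ADP probe (2 uM); compounds pin-transferred, 15 min at room temperature. Binding inhibition read as decreased fluorescence polarization; ADP titration as control.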
Bst PK mod = Pyruvate Kinase; AID 361, 2006; 51,000 tested, 1.2% active; Potency, µM; partly purified Bacillus stearothermophilus pyruvate kinase, luminescence ATP production; ribose 5-phosphate activator present at AC10; in the data active means potency below about 11 µM; inconclusive means mostly about 12 µM to 25 µM; inactive means weaker than that;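 the screen sought inhibitors and activators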;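 note: potency is the fitted concentration of half-maximal effect; scaled between full activation by ribose 5 phosphate and full inhibition by luteolin; about four in five hits inhibit and the cells do not say which; series up to 57 µM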
* marks the source's active call; other numbers are inactive results; i = inactive; u = inconclusive; x = no result given. These rows are one share of the data. The share of hits here may be higher or lower than overall.

Results follow in this order: Bst PK mod | YjeE inh
CCCCN(CC)CCNS(=O)(=O)c1ccc2c(c1)oc(=O)n2C
 : >57 | i
Cc1ccc(S(=O)(=O)Cn2cnnn2)cc1
 : >57 | i
CC(C)(C)c1cc(CN2CCOCC2)c(C(=O)O)o1
 : >57 | i
Cc1cc(C)c2c(N)c(C(=O)N3CCN(c4ncccn4)CC3)sc2n1
 : >57 | i
COc1ccc(S(=O)(=O)N2Cc3ccccc3CC2C(=O)Nc2nccs2)cc1OC (centres undefined)
 : >57 | i
CCCn1c(-c2ccc(OC)cc2)nc2nc3ccccc3nc21
 : >57 | i
Cc1cc(C)nc(NS(=O)(=O)c2ccc(Br)s2)c1
 : x | i
O=C(O)[C@@H]1[C@@H](C(=O)Nc2ncccn2)[C@@H]2C=C[C@@H]1O2
 : x | i
COc1ccc(CCCc2nnc(SCC(=O)Nc3nc(C)cs3)n2C)cc1
 : >57 | i
COc1ccc(C2=C(O)C(C)N(c3ccccc3)C2=N)cc1OC (centres undefined)
 : >57 | i

Next section, overlapping the part above by 7 compounds.
Results follow in this order: Bst PK mod | YjeE inh
Cc1cc(C)c2c(N)c(C(=O)N3CCN(c4ncccn4)CC3)sc2n1
 : >57 | i
COc1ccc(S(=O)(=O)N2Cc3ccccc3CC2C(=O)Nc2nccs2)cc1OC (centres undefined)
 : >57 | i
CCCn1c(-c2ccc(OC)cc2)nc2nc3ccccc3nc21
 : >57 | i
Cc1cc(C)nc(NS(=O)(=O)c2ccc(Br)s2)c1
 : x | i
O=C(O)[C@@H]1[C@@H](C(=O)Nc2ncccn2)[C@@H]2C=C[C@@H]1O2
 : x | i
COc1ccc(CCCc2nnc(SCC(=O)Nc3nc(C)cs3)n2C)cc1
 : >57 | i
COc1ccc(C2=C(O)C(C)N(c3ccccc3)C2=N)cc1OC (centres undefined)
 : >57 | i
O=c1c2[nH]c3ccccc3c2ncn1CCN1CCNCC1
 : >57 | i
Cn1nnnc1SCC(=O)N1c2ccccc2Sc2ccccc21
 : >57 | i
CC(C)OC(=O)c1cc(NC(=O)C2C3CCC(O3)C2C(=O)O)cc(C(=O)OC(C)C)c1 (centres undefined)
 : 6.1* | i
COc1ccc(C)cc1-n1nnnc1SCC1CCCCO1 (centres undefined)
 : >57 | i
O=C1CCCCCN1C(=O)c1cccc(C(=O)N2CCCCCC2=O)c1
 : >57 | i
O=C(O)CCC(=O)OCC1CCCO1 (centres undefined)
 : >57 | i
Cc1ccc(NS(=O)(=O)c2cn(C)cn2)cc1
 : >57 | i
CC(C)n1nc(C(=O)Nc2nc3ccc(S(C)(=O)=O)cc3s2)c2ccccc2c1=O
 : >57 | i
CCCCC(=O)Nc1ccc(N2CCN(C(=O)CC)CC2)cc1
 : >57 | i
Cc1ccc(N2CCN(c3cc(C)nc4nc(C)nn34)CC2)c(C)c1
 : x | i
CS(=O)(=O)N(CC(=O)N1CCOCC1)c1ccc2c(c1)OCO2
 : >57 | i
O=S(=O)(/C=C/c1ccccc1)NCCc1ccccn1
 : >57 | i
CC(C)(C)NC(=O)CSc1nnc(-c2ccccn2)n1-c1ccccc1
 : x | i
CCOC(=O)/C(C#N)=C1/C=C(C)NC(c2ccccc2O)=N1
 : x | i
Cc1ccc(Cn2ncc3c(N4CCN(c5ccc(C)cc5)CC4)ncnc32)cc1
 : >26 | x
CNC(=O)c1[nH]cnc1C(=O)Nc1cccc(OC)c1
 : u | i
c1cc(Nc2ncnc3sccc23)cc(-c2nnc3n2CCCCC3)c1
 : >11 | i
CCOC(=O)c1ccc2c(c1)nc(SCC(=O)c1ccco1)n2CC
 : >57 | i
Cc1cc(C)n2nc(SCN3C(=O)c4ccccc4C3=O)nc2n1
 : >57 | i
COc1ccc(NCc2ccc3c(c2)OCO3)cc1Cl
 : x | i
CN(C)c1oc(-c2ccccc2Cl)nc1S(=O)(=O)c1ccccc1
 : x | i
CCOC(=O)CSc1nc2cc(C)ccc2cc1C#N
 : >11 | i
CCOc1ccccc1N1CC(O)=C(c2nc3ccccc3s2)C1=N
 : >57 | i
Cc1nn(CCC(=O)O)c2nc(-c3cccnc3)cc(C(F)(F)F)c12
 : >57 | i
COc1ccc2[nH]cc(C(=O)CN3CCN(C4CCCCC4)CC3)c2c1
 : >57 | i
CC1=CC(C)C(/C=N/n2cnnc2)C(C)C1 (centres undefined)
 : >11 | i
COC(=O)c1ccc(C)c(N(CCO)CCO)c1
 : >57 | i
O=C(Nc1cccnc1)c1ccc(COCC(F)(F)F)cc1
 : >57 | i
COc1ccc(S(=O)(=O)Nc2ccc(O)c3ccccc23)cc1
 : >57 | i
Cc1ccc(C)c(S(=O)(=O)NCc2ccc(C(=O)N3CCN(C)CC3)cc2)c1
 : >57 | i
O=C(Nc1cc(N2CCOCC2)ncn1)NC1(C(F)(F)F)Oc2ccc(Cl)cc2O1 (centres undefined)
 : x | i
Cc1ccc2c(c1)c(C)c(C)n2CC(O)Cn1nc(C)cc1C (centres undefined)
 : >57 | i
CC1(C)S[C@@H]2[C@H](NC(=O)[C@H](N)c3ccccc3)C(=O)N2[C@H]1C(=O)O
 : >26 | i
COCCn1c(SCC(=O)Nc2cccc(C(=O)OC)c2)nc2ccccc2c1=O
 : >57 | i
CCSC1=C(C#N)C2(CCCCC2)C(C#N)=C(N)N1
 : i | i
CCOCCCNC(=O)NC12CC3CC(CC(C3)C1)C2
 : >57 | i
COc1cc(C(=O)N2CCN(C(=O)C(Cc3cc(C)ccc3C)NC(C)=O)CC2)cc(OC)c1OC (centres undefined)
 : >57 | i
CN1CCN(C(=O)CCC(=O)c2ccc(F)cc2)CC1
 : >57 | i
O=C(c1csnn1)N1CCC2(CCCN(c3ccccc3)C2)CC1
 : x | i
CCN1CCN(C(=O)CCN2C(=O)COc3ccc(C)cc32)CC1
 : >57 | i
CCn1c(CCNC(=O)c2cccs2)nnc1SCC(=O)c1ccc(OC)cc1
 : >57 | i
COc1nc(N2CCOCC2)nc(-n2cccc2)n1
 : >11 | i
CC12CC(NC(=O)N1c1cccc(C(=O)N3CCN(c4ccccc4)CC3)c1)c1ccccc1O2 (centres undefined)
 : >57 | i
c1ccc(-n2cnnc2SCc2cn3ccccc3n2)cc1
 : >57 | i
O=S(=O)(Cc1ccc(Cl)cc1)NCC1CCCO1 (centres undefined)
 : >57 | i
O=C(CSc1nnc(Cc2cc(=O)[nH]c(=O)[nH]2)n1-c1ccc(F)cc1)NC1CCCC1
 : x | i
Cc1cccc(CNc2ncnc3ccc(-c4ccc(C(=O)N(C)C)cc4)cc23)c1
 : x | i
CCCC(c1nnnn1C(C)(C)CC)N1CCN(C2CCCC2)CC1 (centres undefined)
 : >57 | i
CCOC(=O)C1=C(c2ccccc2)Nc2nc(C)nn2C1c1cccc(OC)c1OC (centres undefined)
 : >57 | i
O=C(O)c1ccc(-n2nc(C(F)(F)F)c3c2-c2ccoc2CC3)cc1
 : >57 | i

The list goes on:
Results follow in this order: Bst PK mod | YjeE inh
O=C(NCCSCc1ccco1)c1ccc(CN2CCOCC2)cc1
 : x | i
O=C(NCc1ccc(F)cc1)c1ccc(CS(=O)(=O)Cc2ccccc2F)o1
 : >57 | i
O=C(NC(Cc1ccccc1)C(=O)OCC(=O)N1CCc2ccccc21)c1ccco1 (centres undefined)
 : >57 | i
Clc1ccc([C@@H](c2ccccc2Cl)C(Cl)Cl)cc1
 : x | i
N#Cc1c(NC(=O)Cn2c(=O)oc3ccccc32)oc(-c2ccccc2)c1-c1ccccc1
 : >57 | i
Cn1c(Cc2ccc3c(c2)OCO3)nnc1SCC(=O)N1CCc2ccccc2C1
 : >57 | i
CCCn1c(SCC(=O)c2cc(OC)ccc2OC)nc2c1c(=O)n(C)c(=O)n2C
 : >57 | i
Cc1c(Cl)cccc1NC(=O)CSc1nnc(CCNC(=O)OC(C)(C)C)o1
 : >57 | i
COc1ccc(-c2nnn(CC(=O)c3ccc4c(c3)OCCO4)n2)cc1OC
 : >57 | i
CCN1CCN(C(=O)CN(c2cc(OC)ccc2OC)S(C)(=O)=O)CC1
 : >57 | i
Cn1c(=O)c2c(ncn2Cc2ccc(Cl)c(Cl)c2)n(C)c1=O
 : >57 | i
CCC12CN3CC(CC)(CN(C1)C3c1c(O)ccc3ccccc13)C2=O (centres undefined)
 : >26 | x
COCCN1Cc2cccc(C(=O)Nc3c(C)cccc3C)c2C1=O
 : >57 | i
O=C(O)c1ccc2noc(-c3ccccc3)c2c1
 : x | i
O=S(=O)(NCc1ccco1)N1CCOCC1
 : >57 | i
S=c1nc(-c2ccccc2)n(CCCn2ccnc2)c2c1CCCC2
 : x | i
Cc1cc(C(=O)Nc2c(F)cc(F)cc2Br)no1
 : >57 | i
O=S(=O)(NC(=NC1CCCC1)C(F)(F)F)c1ccccc1
 : >57 | i
COc1ccccc1NC(=O)CSc1nnc(Cn2cnc3ccccc32)n1C
 : >57 | i
O=C(CN1CCC(n2nnc3cc(F)ccc32)CC1)N1CCc2ccccc2C1
 : >57 | i
COc1ccc(OC)c(C2C(C(N)=O)=C(C)Nc3nc(CCCO)nn32)c1 (centres undefined)
 : x | i
COc1ncc2nc(C)c(=O)n(C[C@H]3CCCO3)c2n1
 : x | i
O=C1OCc2cccc3cccc1c23
 : >57 | i
CCOc1cc(C)c(S(=O)(=O)N2CCCC2)cc1C
 : >57 | i
N#Cc1nc(-c2ccco2)oc1NCc1ccc(F)cc1
 : >57 | i
CCOC(=O)N1CCC(Nc2c(-c3ccc(C)c(C)c3)c(=O)c2=O)CC1
 : >57 | i
CCOc1ccc(N=C(NC#N)SCC(=O)NC2CC2)cc1
 : >11 | x
CCn1c(=O)c2ccccc2n2c(SCC(=O)NCc3cccs3)nnc12
 : x | i
CCCN1CCN(CCCNC(=O)Cn2cc3c(n2)CCCC3)CC1
 : x | i
CC(C)C(c1nnnn1C1CCCC1)N1CCc2ccccc21 (centres undefined)
 : >57 | i
N#Cc1cc2c(nc1SCC(=O)N1CCCCC1)CCCCC2
 : >57 | i
CC(=NCCCn1ccnc1)C1=C(O)c2ccccc2C1=O
 : >57 | i
CC1(C)C(=O)OC(c2cc(Br)ccc2O)C(C)(C)C1=O (centres undefined)
 : x | i
COc1ccccc1C(c1nnnn1C1CCCC1)N1CCN2CCCC2C1 (centres undefined)
 : >57 | i
CCn1c(=O)c2cc(C(=O)N3CCOCC3)sc2c2ccccc21
 : x | i
Cc1ccc(NS(=O)(=O)c2cc(C(=O)N3CCOCC3)ccc2C)cc1C
 : >57 | i
Cc1cc(NC(=O)CSc2ccc3nnc(-c4cccs4)n3n2)no1
 : x | i
COc1ccc(CN(Cc2ccccn2)C(=O)CN2C(=O)COc3ccccc32)cc1
 : >57 | i
O=C(Cc1ccc(Cl)c(Cl)c1)OCCN1CCCC1
 : x | i
Cc1ccc(C)c(S(=O)(=O)C(C#N)c2nc3ccccc3nc2N2CCOCC2)c1 (centres undefined)
 : >57 | i
O=C(CC1(O)C(=O)Nc2ccc(Br)cc21)c1ccc2c(c1)OCO2 (centres undefined)
 : >57 | i
Cc1ccc2c(c1)N(CCC(=O)NCc1cccnc1)C(=O)CO2
 : >57 | i
Cc1ccc(-n2nnnc2SCC(=O)Nc2ccccc2N2CCCCC2)cc1C
 : >57 | i
c1cncc(-c2nn3cnnc3s2)c1
 : >57 | i
CCC(C)N=C1SCC(C)(/C=N/O)S1 (centres undefined)
 : >57 | i
CCOCCn1c(SCCc2ccccc2)nc2c1c(=O)[nH]c(=O)n2C
 : x | i
Cc1ccc(S(=O)(=O)NC(=O)NN2CCCCCC2)cc1
 : >26 | i
CCc1nc2c(c(=O)[nH]1)C1(CCCC1)Cc1ccccc1-2
 : x | i
O=C(NCC1COc2ccccc2O1)C1CCCN(S(=O)(=O)c2cccc3nsnc23)C1 (centres undefined)
 : >57 | i
COC(=O)[C@@]1(Cc2ccc(OC)cc2)[C@@H]2[C@@H](CC(=O)[C@H]2CC(=O)C(=O)N2CCCC2)CN1C(=O)c1ccccc1
 : x | i

Next part
Results follow in this order: Bst PK mod | YjeE inh
COc1ccc(C2CC(c3ccccc3)Nc3nc(NC(=O)c4cccs4)nn32)cc1 (centres undefined)
 : x | i
CCN(CC)S(=O)(=O)c1ccc(C(=O)NC2=C(C(=O)OC)SCC2)cc1
 : >57 | i
O=C(Cn1cnc2c(nnn2-c2ccccc2)c1=O)NCC1CCCO1 (centres undefined)
 : x | i
COc1ccc(-c2noc(-c3ccccc3C(=O)Nc3cccc(OC)c3)n2)cc1
 : x | i
COc1ccc(C2CC(=O)c3c([nH]c(C(=O)OC(C)C)c3C)C2)cc1OC (centres undefined)
 : >57 | i
COc1ccc(CN2CN(C(C)C)CSC2=S)cc1
 : >57 | i
CN1CC=C2C(C#N)=C(N)C(C#N)(C#N)[C@H](c3cccc(Cl)c3)C2C1 (some centres undefined)
 : >26 | x
O=C(O)C[C@@H](C(=O)O)C1c2ccccc2-c2ccccc21
 : x | i
Cc1occc1C(=O)Nc1ccc2c(c1)CCC2
 : x | i
COC(=O)c1ccc2c(c1)NC(=O)C1CCCN21 (centres undefined)
 : x | i
Cc1cc(C)n2nc(Cc3ccccc3)nc2n1
 : >57 | i
Cc1ccc(SCc2nc(-c3ccncc3)no2)cc1
 : >57 | i
Cc1ccc(S(=O)(=O)N2c3ccc(S(N)(=O)=O)cc3CC2C)cc1 (centres undefined)
 : >57 | i
COc1ccc(-c2ccc(=O)n(CC(=O)N3CCN(c4ccccc4OC)CC3)n2)cc1
 : x | i
COc1ccc(CN(Cc2ccncc2)C(=O)CCC(=O)O)cc1
 : >57 | i
O=C1CCCN1CN(C(=O)c1ccc2c(c1)OCO2)c1ccc(F)cc1
 : >57 | i
CCOc1c(OC)cccc1C1CC(=O)Nc2cc3c(cc21)OCCO3 (centres undefined)
 : x | i
CCSc1nnc(NC(=O)C(CC)(C(F)(F)F)C(F)(F)F)s1
 : >26 | x
